Bioassay records from PubChem.
hERG protect: compounds protecting human hERG from proarrhythmic drug block; Q12809; CHO-hERG, FluxOR thallium flux, dofetilide IC70 present; activation (rescue from dofetilide block), less the hit threshold, % at 10 µM; 310,000 compounds, 0.51% hits;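 active = activation above the mean of controls blocked by dofetilide plus 5 SD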;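 note: thallium influx through hERG after potassium depolarization seen as dye fluorescence rise; in these data hits start at about 4.7%; inactives centre near -7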
KCNK3 block: human KCNK3 channel inhibition, primary screen; CHO-KCNK3 thallium flux, FluxOR fluorescence; active compounds read low; O14649; 340,000 compounds, 0.84% hits; B-score at 10 µM;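 active = B-score under library mean minus 4 SD, starting fluorescence ratio at most library mean plus 5 SD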;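 note: more negative B-score means stronger inhibition of thallium flux through KCNK3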
KCNQ1 inh: blocks the human KCNQ1 potassium channel. P51787. CHO-K1 KCNQ1, FluxOR thallium flux fluorescence; active compounds read high. B-score at 10 µM. 310,000 compounds, 1.3% hits. AID 2642;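 active = compounds whose thallium flux B-score, printed positive for inhibition, exceeds three library SD while starting fluorescence stays within three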;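 note: channel opened by potassium depolarization with thallium stimulus after 20 min compound exposure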
KCNK9 inh: human KCNK9 channel inhibition | AID 488922 | 310,000 compounds, 1.2% hits | B-score at 10 µM | HEK293 KCNK9, FluxOR thallium flux fluorescence; active compounds read low | Q9NPC2;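 active = ratio B-score over 3 SD below the library mean, with starting fluorescence within 5 SD of its mean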;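 note: negative B-score means less thallium flux so channel inhibition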
ANO1 activ: activates or potentiates the mouse TMEM16A chloride channel. Q8BHY3. HEK293 TMEM16A/YFP-H148Q/I152L, iodide quench fluorescence; active compounds read low. B-score at 10 µM. 340,000 compounds, 0.3% hits. AID 623877;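 active = fluorescence-ratio B-score plate-corrected deviation score at least 3 library SD below zero, with starting fluorescence score within 5 deviations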;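 note: channel opened by trigger with iodide after compound preincubation; score built on the fluorescence ratio of max minus min over baseline; more negative score means more quench and so TMEM16A activation or potentiation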
HDAC3 inh: blocks human histone deacetylase 3; inhibition, % at 8.3 µM; 320,000 compounds, 0.15% hits; recombinant HDAC3, fluorogenic peptide/trypsin coupled, fluorescence; O15379; AID 2718; in the data active = inhibition above about 26%, passing the limit was not always enough
KCNQ1 act: potentiates or activates the human KCNQ1 potassium channel. P51787. CHO-K1 KCNQ1, thallium flux FluxOR fluorescence; active compounds read high. B-score at 10 µM. 310,000 compounds, 0.35% hits;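 active = fluorescence ratio B-score, a plate-corrected score, at least three library SD, with initial intensity B-score within 5 SD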
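assay system = KCNQ1-transfected CHO-K1 cells | medium = assay buffer with matched DMSO | probe or stimulus = depolarizing K+/Tl+ stimulus, K2SO4 and Tl2SO4 each 12.5 mM in 5x stock | dosing = single dose | incubation = dye 90 min, compound 20 min, room temperature | detection = kinetic FluxOR fluorescence, 10 s baseline plus 110 s post-stimulus | evaluation = ratio B score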
TRPC4 act: TRPC4 (mouse) channel activation. HEK293 TRPC4beta/mu-opioid, Fluo4 calcium fluorescence; active compounds read high. B-score at 10 µM. 310,000 compounds, 0.49% hits. AID 2237;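 active = B-score above 5 SD of library B-scores, and initial fluorescence ratio not above library mean plus 5 SD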;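 note: positive B-score marks a calcium rise read as TRPC4 activation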
Target sequence (Q9QUQ5 whole entry, looked up): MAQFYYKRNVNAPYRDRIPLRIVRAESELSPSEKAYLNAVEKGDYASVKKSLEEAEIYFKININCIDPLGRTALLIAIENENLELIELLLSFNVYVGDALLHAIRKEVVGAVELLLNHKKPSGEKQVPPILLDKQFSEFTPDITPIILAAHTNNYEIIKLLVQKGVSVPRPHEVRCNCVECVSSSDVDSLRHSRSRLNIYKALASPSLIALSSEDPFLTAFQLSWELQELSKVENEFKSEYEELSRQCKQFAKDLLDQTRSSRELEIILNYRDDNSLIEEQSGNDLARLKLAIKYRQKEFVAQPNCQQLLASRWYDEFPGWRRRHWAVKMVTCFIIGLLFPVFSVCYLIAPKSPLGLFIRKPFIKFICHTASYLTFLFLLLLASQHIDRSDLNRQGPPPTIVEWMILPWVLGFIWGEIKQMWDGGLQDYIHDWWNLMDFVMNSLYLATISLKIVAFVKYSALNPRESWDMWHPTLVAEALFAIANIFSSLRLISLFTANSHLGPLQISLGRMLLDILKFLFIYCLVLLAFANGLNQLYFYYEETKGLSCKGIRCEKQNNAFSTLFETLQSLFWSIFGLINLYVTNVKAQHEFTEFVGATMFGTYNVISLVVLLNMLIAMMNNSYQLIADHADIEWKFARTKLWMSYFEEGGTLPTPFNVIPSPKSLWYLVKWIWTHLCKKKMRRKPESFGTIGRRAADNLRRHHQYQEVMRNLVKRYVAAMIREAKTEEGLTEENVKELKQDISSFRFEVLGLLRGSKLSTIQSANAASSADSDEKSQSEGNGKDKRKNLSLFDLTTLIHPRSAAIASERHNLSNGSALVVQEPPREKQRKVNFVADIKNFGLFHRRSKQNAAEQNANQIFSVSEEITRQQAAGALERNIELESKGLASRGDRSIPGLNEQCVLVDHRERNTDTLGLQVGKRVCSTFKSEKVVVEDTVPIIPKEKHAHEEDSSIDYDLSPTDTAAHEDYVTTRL
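Assay system – TRPC4beta and mu-opioid receptor HEK293 stable cells · Measured by – Fluo4 fluorescence, kinetic · Schedule – dye loading 45 min room temperature, 110 s kinetic read · Read-out – B-scored integrated calcium fluorescence ratio · Controls – buffer and maximal DAMGO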
TMEM16A inh: blocks the mouse calcium-activated chloride channel TMEM16A; AID 588511; 310,000 compounds, 1.2% hits; normalized B-score (activity score, 25-100; higher = stronger inhibition) at 10 µM; HEK293 TMEM16A/YFP iodide influx fluorescence, ionomycin;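 active = ratio plate-corrected score three or more library SD toward inhibition, starting fluorescence score within five deviations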;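 note: score derived from kinetic fluorescence span divided by baseline fluorescence per well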
TRPC4 PAM: TRPC4 (mouse) allosteric potentiation; HEK293 TRPC4beta/mu-opioid, DAMGO EC20, Fluo-4 Ca2+ flux; active compounds read high; B-score at 10 µM; 310,000 compounds, 0.42% hits; AID 2227;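 active = B-score of calcium response area above 5 SD of library B-scores, with initial fluorescence ratio within 5 SD of library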;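 note: B-score of integrated fluorescence ratio over time as area under calcium response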
Numbers without * were called inactive; i = inactive; . = not tested or not shown.

Structure,hERG protect,KCNK3 block,KCNQ1 inh,KCNK9 inh,ANO1 activ,HDAC3 inh,KCNQ1 act,TRPC4 act,TMEM16A inh,TRPC4 PAM
Cc1ccc(C2C3=C(NCCN=C3c3ccccc3)C(=O)N2c2ccccc2)cc1 (stereo unspecified),-13.7,i,i,i,i,-1.0,i,i,i,i
COC(=O)CCC(=O)OC1(C)C(=O)C=C2C=C(C3CC3)N(Cc3ccccc3)C=C2C1=O (stereo unspecified),-7.5,i,i,i,i,1.8,i,i,i,i
O=C(OCC(=O)N1CCN(C(=O)c2ccco2)CC1)c1sc2cc(F)ccc2c1Cl,-2.3,i,i,i,i,-0.4,i,i,i,i
Fc1cccc(CNc2ncnc3ccc(-c4ccc5c(c4)OCO5)cc23)c1,.,i,.,.,i,-3.6,.,.,.,.
CC(=O)N/C(=C\c1ccccc1)C(=O)OC(C)C(=O)NCc1ccccc1 (stereo unspecified),-7.6,i,i,i,i,0.5,i,i,i,i
O=C(Nc1ccccc1)c1cccnc1Nc1ccccc1,-6.3,i,i,i,i,-5.7,i,i,i,i
O=c1c(-c2ccc(O)cc2O)coc2cc(O)cc(O)c12,-9.1,i,i,i,i,2.1,i,i,i,i
Cc1c(C=O)c2ccccn2c1C(=O)c1ccc(Cl)c([N+](=O)[O-])c1,-5.9,i,i,i,i,-1.0,i,i,i,i
Cc1ccc2cc(C)c(N3CCN(c4ccccn4)CC3)nc2c1,-8.5,i,i,i,i,2.9,i,i,i,i
COc1ccccc1/C=C1\C(=O)Nc2ccccc21,-6.7,i,i,i,i,-4.1,i,i,i,i
CC(=O)c1cccc(NC(=O)/C=C/c2ccc(S(=O)(=O)N3CCOCC3)cc2)c1,.,i,.,.,i,16.6,.,.,.,.
CC(C)CCn1c(=O)c2ccccc2n2c(=S)[nH]nc12,-1.7,i,i,i,i,-5.5,i,i,i,i
N#Cc1ccc2ccn(CC(=O)NCc3ccccc3)c2c1,-0.7,i,i,i,i,-3.1,i,i,i,i
CSc1nc2ccc3nc(NC(=O)c4ccc(C)cc4)sc3c2s1,-6.2,i,i,i,i,-5.8,i,i,i,i
CCOC(=O)CNC(=O)CSc1nnc(COc2ccc(Cl)cc2)n1CC,-10.6,i,i,i,i,2.1,i,i,i,i
Cc1ccc(C)c(Nc2nc3ccc(C)cc3n3cnnc23)c1,-1.8,i,i,i,i,0.3,i,i,i,i
CCOc1ccccc1-c1nc(C(N)=O)c2[nH]c(=O)n(-c3ccc(F)cc3)c2n1,-14.6,i,i,i,i,4.7,i,i,i,i
COc1ccc(-n2ncc3c(NC(C)C)ncnc32)cc1,-5.8,i,i,i,i,-6.2,i,i,i,i
CCOc1ccc2oc(C(=O)N3CCN(c4ccccc4OCC)CC3)c(C)c2c1,-20.7,i,6*,i,i,-4.0,i,i,i,i
COc1ccc(OC)c(-n2c(-c3cc(-c4ccc(F)cc4)n[nH]3)n[nH]c2=S)c1,-7.0,i,i,i,i,1.2,i,i,i,i
Cc1ccc(-c2nnc3ccc(SCC(=O)Nc4cc(C)on4)nn23)cc1,-11.6,i,i,i,i,.,i,i,i,i
CC(C)(C)c1ccc(OCC(=O)NNC(=O)c2cccnc2)cc1,-5.4,i,i,i,i,7.6,i,i,i,i
COc1ccccc1N1CCN(C(=O)c2ccc3c(c2)CCN3S(C)(=O)=O)CC1,-5.9,i,i,i,i,.,i,i,i,i
CC1CC1C(=O)Nc1nc2ccc(S(C)(=O)=O)cc2s1 (stereo unspecified),-9.1,i,i,i,i,-3.6,i,i,i,i
O=C(COc1ccc(Cl)cc1)Nc1nnc(-c2ccc3c(c2)CCCC3)o1,-2.1,i,i,i,i,-1.2,i,i,i,i
O=C(O)c1cccc(S(=O)(=O)N2CCSCC2)c1,-4.6,i,i,i,i,.,i,i,i,i
CC(Sc1nnnn1C)C(=O)Nc1ccc(Oc2ccccc2)cc1 (stereo unspecified),-11.6,i,i,i,i,-4.6,i,i,i,i
CCOC(=O)c1cc(C(=O)OCC)c(=O)[nH]c1N1CCCCC1,-12.4,i,i,i,i,0.7,i,i,i,i
CC(NS(=O)(=O)c1ccc(Cl)cc1)C(=O)OCC(=O)c1ccc[nH]1 (stereo unspecified),.,i,.,.,i,-3.8,.,.,.,.
O=C(O)c1oc2ccc(Br)cc2c1-n1cccc1,-8.0,i,i,i,i,0.7,i,i,i,i
Cc1cc2nc3s/c(=C/c4ccc(-c5ccccc5C(=O)O)o4)c(=O)n3c2cc1C,-26.7,i,i,i,i,-3.6,i,143*,i,12*
COC(=O)/C(NC(C)=O)=C(\C)c1ccc(Cl)cc1,-3.6,i,i,i,i,2.1,i,i,i,i
O=C(CN1CCOCC1)Nc1nc2ccc(Cl)cc2s1,-4.2,i,i,i,i,-0.8,i,i,i,i
COc1ccccc1/C=N/NC(=O)c1nnn(-c2nonc2N)c1-c1cccs1,-8.6,i,i,i,i,13.4,i,i,i,i
CN1C(=O)/C(=C/c2cc(C(C)(C)C)c(O)c(C(C)(C)C)c2)NC1=S,0.9,i,i,i,i,6.9,i,i,i,i
CC(=O)N1c2ccccc2S(=O)(=O)c2c1ccc1ccccc21,.,i,.,.,i,.,.,.,.,.

Record cards, from the list above. Order of values: hERG protect | KCNK3 block | KCNQ1 inh | KCNK9 inh | ANO1 activ | HDAC3 inh | KCNQ1 act | TRPC4 act | TMEM16A inh | TRPC4 PAM
Results for CC(=O)N1c2ccccc2S(=O)(=O)c2c1ccc1ccccc21 → . | i | . | . | i | . | . | . | . | .
Results for O=C(COc1ccc(Cl)cc1)Nc1nnc(-c2ccc3c(c2)CCCC3)o1 → -2.1 | i | i | i | i | -1.2 | i | i | i | i

(list continues)
Structure,hERG protect,KCNK3 block,KCNQ1 inh,KCNK9 inh,ANO1 activ,HDAC3 inh,KCNQ1 act,TRPC4 act,TMEM16A inh,TRPC4 PAM
O=C(CN1CCOCC1)Nc1nc2cc([N+](=O)[O-])ccc2s1,-0.1,i,i,i,i,1.4,i,i,i,i
COc1ccc2ccccc2c1/C=N/O,-1.8,i,i,i,i,-2.0,i,i,i,i
COc1ccc(CCNC(=O)C2CCN(S(=O)(=O)c3cnc[nH]3)CC2)cc1OC,-3.4,i,i,i,i,-0.7,i,i,i,i
COC(=O)C1=NN(c2ccc(Cl)cc2)C2C(=O)N(c3ccccc3OC)C(=O)C12 (stereo unspecified),-2.8,i,i,i,i,0.4,i,i,i,i
O=C1NC(=NCc2ccccc2)S/C1=C/c1ccc(O)cc1,-8.8,i,i,i,i,0.7,i,i,i,i
O=C(Cn1c(=O)n(Cc2ccccc2)c(=O)c2ccccc21)NCc1ccco1,-9.2,i,i,i,i,6.2,i,i,i,i
CC1CCc2c(sc3nc(C4CC4)nc(N4CCN(C(=O)c5ccco5)CC4)c23)C1 (stereo unspecified),2.5,i,6*,i,i,-6.0,i,i,100*,i
COc1cccc(NC(=O)N2CCN(c3nc(-c4cccc(OC)c4)cs3)CC2)c1,-15.9,i,i,i,i,5.7,i,i,i,i
CC(=O)Nc1cc(NC(C)=O)c2nc(N)sc2c1,-1.1,i,i,i,i,4.2,i,i,i,i
CCN(CC)CC(=O)N1c2ccccc2Oc2c(c(=O)n(C)c(=O)n2C)C1c1cccc([N+](=O)[O-])c1 (stereo unspecified),-6.4,i,i,i,i,-2.6,i,i,i,i
COc1ccc2c(c1)-c1ccccc1S(=O)(=O)N2C,-8.4,i,i,i,i,-3.3,i,i,i,i
Oc1ccc2c(c1)c1ccccc1c1ncccc21,.,i,.,.,i,.,.,.,.,.
Cc1cccc(Nc2nc(N)nc(N)c2N=O)c1,.,i,.,.,i,.,.,.,.,.
CSc1nc(NCc2ccccc2)c2c3c(sc2n1)CN(C)CC3,-17.7,i,i,i,i,-38.1,i,i,i,i
Cc1ccc2nc(NC(=O)C3CCN(S(=O)(=O)c4cccnc4)CC3)sc2c1,-4.8,i,i,i,i,2.1,i,i,i,i
O=C(C1CCN(S(=O)(=O)c2cnc[nH]2)CC1)N1CCN(c2ncccn2)CC1,-7.7,i,i,i,i,1.4,i,i,100*,i
CC1=C(C(=O)OCC2CCCO2)C(c2cccc(C(F)(F)F)c2)C2=C(CC(c3ccco3)CC2=O)N1 (stereo unspecified),-15.7,i,i,i,i,-0.2,i,i,i,i
O=C(NCc1ccc(F)cc1)c1cnc2sccn2c1=O,-6.5,i,i,i,i,-12.0,i,i,i,i
CC(C)Oc1ccc(-c2nc(NCC3CCCO3)c3ccccc3n2)cc1 (stereo unspecified),-14.2,i,8*,i,i,-0.9,i,i,i,i
CCC1(C)Cc2ccccc2-c2nc(NCCO)[nH]c(=O)c21 (stereo unspecified),-9.9,i,i,i,i,-102.1,i,i,i,i
CCN1/C(=C/C(=S)Nc2ccccc2)Sc2ccccc21,-5.7,i,i,i,i,0.6,i,i,i,i
Clc1ccccc1-c1nc2ccccc2c2nncn12,-0.8,i,i,i,i,-1.0,i,i,i,i
CC1=CC(C)(C)Nc2ccc(OC(=O)c3cccnc3)cc21,-10.9,i,i,i,i,11.7,i,i,i,i
CCN1CCN(c2c(Cl)cccc2NC(=O)c2ccco2)CC1,-4.3,i,i,i,i,5.4,i,65*,i,i
O=C(Nc1ccccc1C(=O)O)c1cccc(NC(=O)c2ccc(Br)o2)c1,-20.1,i,i,i,i,7.0,i,i,i,i
O=C(CN1C(=O)C2CC=CCC2C1=O)Nc1nc2ccc(F)cc2s1 (stereo unspecified),-6.8,i,i,i,i,6.2,i,i,i,i
N#CC(c1ccncc1)(c1ncc(C(F)(F)F)cc1Cl)N1CCOCC1 (stereo unspecified),-14.1,i,i,i,i,11.9,i,i,i,i
Cc1c(NC(=S)NC(=O)c2ccc(-c3ccc(Cl)cc3)o2)cccc1C(=O)O,-0.5,i,i,i,i,5.5,i,i,i,i
Cc1cc(-c2nn3c(C)nnc3s2)ccc1NC(=O)C(C)(C)C,-1.0,i,i,i,i,2.4,i,i,i,i
Cc1ccc2nc(NC(=O)CN3CCOCC3)sc2c1,0.6,i,i,i,i,0.2,i,i,i,i

Not all compounds are listed, so the mix of outcomes need not match the whole.
